# Biofilm kill mix: mixture kills Candida albicans biofilm cells. C. albicans biofilm persisters + clotrimazole, fluorescence viability; primary screen in compound mixtures of four per well. inhibition, % at 7.6 µM. 0.02% of 120,000 active;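 active means inhibition above 30.3% in the primary screen of four-compound pools, then above 30% when the compound was retested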;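 further: compounds exposed to preformed 24 h biofilms for 48 h; the number belongs to the whole pool; some results filed as inactive read as strong as hits; inactives centre near 12; 0% = biofilm with clotrimazole alone and 100% = kill control; retested singly at about 60 µM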
#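 Incubation: 24 h biofilm formation, then 48 h compound exposure, 37 °C | Material: C. albicans biofilms | Buffer or medium: RPMI/MOPS medium, pH 7.0 | Measured by: 2-h Alamar Blue fluorescence, 535/590 nm excitation/emission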
# Starred values were filed as active, the others as inactive.
SMILES,Biofilm kill mix
O=S(=O)(c1ccccc1)c1cnc(-c2ccccc2)nc1N1CCCCC1,10
O=S(=O)(N/N=C\c1cccnc1)c1ccccc1,6
CSc1ncccc1C(=O)OCC(=O)c1ccc2c(c1)NC(=O)CO2,23
O=[N+]([O-])c1cc(C(F)(F)F)ccc1SCC(O)CO (stereo not given),-11
O=C1CC(c2ccccc2)=Nc2ccc(Br)cc2N1,4
CC(C)N=C(NS(=O)(=O)c1ccccc1)C(Cl)(Cl)Cl,7
Cc1ccc(S(=O)(=O)N2CCN(c3c([N+](=O)[O-])cc(C(F)(F)F)cc3[N+](=O)[O-])CC2)cc1,17
Cc1ccccc1/C=N\NC(=O)c1ccc(Cn2cccn2)o1,8
Cc1noc(C)c1COC(=O)c1ccc(N(C)C)cc1,1
Cc1[nH]c2ccccc2c(=O)c1C(=O)/C=C/c1ccccc1,16
CC(=O)Nc1ccc(C2=NN(c3ccccc3)C(c3cccs3)C2)cc1 (stereo not given),7
COC(=O)c1ccc(NC(=S)NN2CCOCC2)cc1,21
COc1ccc(CNC(=O)Nc2cc(C)ccc2C)cc1,11
CCOc1ccc(S(N)(=O)=O)cc1-c1nc2c(C(C)(C)C)nn(C)c2c(=O)[nH]1,18
CCCCCCCC(=O)N/N=C/c1ccncc1,1
CCN1CCC2(CC1)N=C(c1ccc(F)cc1)C(=S)N2C(=O)c1ccc(C)cc1,6
CC12CN(Cc3ccccc3)CC(C)(CN(Cc3ccccc3)C1)C2=O,13
CC(Sc1nc2cc(Cl)ccc2s1)C(=O)Nc1ccc2c(c1)OCO2 (stereo not given),26
CCOc1ccnc(OCC)c1Br,9
C[N+]1(CC(=O)OC2CCCCCCCCCCC2)CCCC1,15
CSc1cccc(NC(=O)C2CCN(C(=O)c3ccccc3C)CC2)c1,18
C[C@H]1C=C(C(=O)NC2CC2)O[C@@H](OCc2ccc(CO)cc2)C1,17
O=C(O)/C=C/C(=O)NCCc1cccc(Cl)c1,10
CCN(CC)c1ccc(/C=C2\C(=O)c3ccc(C(=O)O)cc3C2=O)cc1,12
COc1ccc(CCNC(=O)c2ccc(CNS(=O)(=O)c3ccccc3)cc2)cc1OC,-11
O=C(O)c1ccc(Sc2nnc3ccccn23)c([N+](=O)[O-])c1,27
O=C(N=Nc1ccc(NOC(=O)c2ccccc2Br)cc1)c1ccccc1O,5
O=C(Nc1nnc(-c2ccc(F)cc2)o1)c1cc(Cl)sc1Cl,14
O=C(NCc1ccccc1)c1csc2c1CCCC2,8
O=C(Nc1cccnc1)Nc1cc(Cl)cc(Cl)c1,6

# Overlap with the part before: 4 entries, followed by the next part.
SMILES,Biofilm kill mix
O=C(N=Nc1ccc(NOC(=O)c2ccccc2Br)cc1)c1ccccc1O,5
O=C(Nc1nnc(-c2ccc(F)cc2)o1)c1cc(Cl)sc1Cl,14
O=C(NCc1ccccc1)c1csc2c1CCCC2,8
O=C(Nc1cccnc1)Nc1cc(Cl)cc(Cl)c1,6
COc1cc(/C=C\C(=O)OCn2nnc3ccccc3c2=O)cc(OC)c1OC,22
Cn1nnnc1SCc1csc(C2C(C#N)=C(N)OC3=C2C(=O)CCC3)c1 (stereo not given),12
CCC(=O)N/N=C(\C)CC(=O)Nc1ccc(Cl)cc1,-3
O=S(=O)(c1ccc(C2CCCCC2)cc1)N1CCOCC1,-2
O=C1CSC(c2ccccc2[N+](=O)[O-])N1c1ccc(O)cc1 (stereo not given),13
Cc1cc(N/N=C/c2ccccc2)nc(N2CCOCC2)n1,19
CN(C)c1ccc(NC(=S)NC(=O)/C=C/c2ccco2)cc1,28
O=C1c2ccccc2C(O)(c2ccccc2)N1C1CC1 (stereo not given),28
CC(=O)NC(C)c1nc2ccccc2n1Cc1ccccc1F (stereo not given),5
COc1ccc(CCNC(=O)C(=O)NCc2ccccc2C)cc1OC,25
CC(C)N(Cc1ccccc1)C(=S)NC1CCCCC1,7
O=c1c2c3c(sc2ncn1/N=C/c1ccncc1)CCCC3,17
CCSc1nnc(NC(=O)[C@H](C)N2C(=O)C3CC=CCC3C2=O)s1 (stereo not given in full),9
O=C(CSc1nc2ncc(Cl)cc2[nH]1)NCCc1ccc(F)cc1,15
Cn1cccc1/C=N/NC(=O)c1ccn[nH]1,17
CC(=O)Nc1ccc(NC(=O)C(OC(=O)c2ccccc2)C(OC(=O)c2ccccc2)C(=O)O)cc1 (stereo not given),11
C=CCOc1ccc(/C=N/NC(=O)C(C)Sc2ccccn2)cc1OC (stereo not given),7
CCCn1c(O)c(N=Nc2ccc3ccccc3n2)c2ccccc21,12
Cc1ccc(-n2nnc(-c3cc4ccccc4n3C)n2)cc1,12
O=C(/C=C/c1cccs1)NC1CCS(=O)(=O)C1 (stereo not given),2

# Reprinted from the part before: 8 entries, then new ones.
SMILES,Biofilm kill mix
CCSc1nnc(NC(=O)[C@H](C)N2C(=O)C3CC=CCC3C2=O)s1 (stereo not given in full),9
O=C(CSc1nc2ncc(Cl)cc2[nH]1)NCCc1ccc(F)cc1,15
Cn1cccc1/C=N/NC(=O)c1ccn[nH]1,17
CC(=O)Nc1ccc(NC(=O)C(OC(=O)c2ccccc2)C(OC(=O)c2ccccc2)C(=O)O)cc1 (stereo not given),11
C=CCOc1ccc(/C=N/NC(=O)C(C)Sc2ccccn2)cc1OC (stereo not given),7
CCCn1c(O)c(N=Nc2ccc3ccccc3n2)c2ccccc21,12
Cc1ccc(-n2nnc(-c3cc4ccccc4n3C)n2)cc1,12
O=C(/C=C/c1cccs1)NC1CCS(=O)(=O)C1 (stereo not given),2
COC(=O)c1cc(C(=O)c2ccc(C(C)(C)C)cc2)c[nH]1,18
C1CCCC(NC2=NCCO2)CCC1,9
O=C(COc1cccnc1[N+](=O)[O-])N1CCN(S(=O)(=O)c2ccccc2)CC1,21
O=C(/C=C/c1ccc(Cl)cc1Cl)NC(=S)Nc1ccc(CN2CCOCC2)cc1,8
Cc1ccccc1CC1(CO)CCCN(C(=O)CCC(=O)c2ccccc2)C1 (stereo not given),14
O=Cc1cn(CC(=O)NCC2CCCO2)c2ccccc12 (stereo not given),16
O=C(CSc1ccc(F)cc1)NC12CC3CC(CC(C3)C1)C2,-9
CCc1cccc(OC2OC(CO)C(O)C(O)C2NC(C)=O)c1 (stereo not given),19
CCCCC(=O)N(CCOC)c1nnc(-c2ccccc2C)s1,4
COc1ccc2[nH]c(C)c(CCNC(=S)Nc3cccc(C)c3)c2c1,-1
CCC1CCCCN1C(=O)CCc1nnc(Cc2cc(OC)ccc2OC)o1 (stereo not given),2
O=C(Oc1ccccc1C(=O)Nc1ccccc1)c1ccccc1Br,4
CN(CCc1ccccn1)C(=O)CCC1CCCN(C(=O)c2ccccn2)C1 (stereo not given),24
CCO[C@H]1OC(C(=O)N2CCOCC2)=C[C@@H](c2cn(C(C)=O)c3ccccc23)[C@@H]1CCCO,12
COCC(C)Nc1ccc(S(=O)(=O)N2CCCC2)cc1[N+](=O)[O-] (stereo not given),10
S=C(Nc1cccc2ccccc12)NC1CCCCC1,8
COC(=O)c1sccc1S(=O)(=O)Nc1ccc(Cl)cc1,16
Cc1nn(-c2ccccc2)c(C)c1C(=O)OCC(N)=O,14
O=C(Nc1nc(-c2ccc(-c3ccccc3)cc2)cs1)C1=COCCO1,13
CC(C)c1ccccc1OCC(=O)NN1C(=O)c2ccccc2C1=O,18
Cc1sc2ncn(CC(=O)NCC(=O)N(C)Cc3ccccc3)c(=O)c2c1C,9
CSc1nc(Cl)cc(Nc2ccc(O)cc2)n1,-1
CC(C)OC(=O)CSc1nc(C(C)C)nc2ccccc12,14
CCCNC(=O)C1CCN(c2ccc(S(=O)(=O)N3CCOCC3)cc2Cl)CC1,11
CSc1ccccc1NC(=S)N/N=C/c1cccn1Cc1cccc(C)c1,12
CCOC(=O)c1sc2nc(C)[nH]c(=S)c2c1C,-3
CCOC(=O)c1c(NC(=O)C2(C)Cc3ccccc3C(=O)O2)sc2c1CCCC2 (stereo not given),8
Cc1ccc(C(=O)Oc2ccccc2N2CCOCC2)cc1,12
Nc1nc(-c2cccnc2)nn1C(=O)c1ccc(Cl)cc1,13
O=C(Cc1ccccc1)c1c[nH]c(C(=O)O)c1,7
Cc1ccc2[nH]c(O)c(N=NC(=O)C3CC3c3ccccc3)c2c1Br (stereo not given),18
CCC(CC)C(=O)c1c[nH]c(C(=O)N2CCN(c3ccccc3)CC2)c1,18
Cc1cc(Nc2cccc(F)c2)nc(N2CCOCC2)n1,16
CCOC(=O)C1(Cc2cccc(OC)c2)CCCN(C(=O)c2cc(C)[nH]n2)C1 (stereo not given),10
CCN(CC)C(=O)COc1cccc2ccccc12,-10
COc1ccc(C(=O)NCc2nnc(SCC(=O)Nc3nnc(C)s3)o2)cc1,16
O=C(Nc1nccs1)c1ccc(-c2ccc(Cl)cc2Cl)o1,20
CCCCCCCSc1nnc(N)s1,18
COc1cc(OCC(N)=O)cc(OC)c1OC,8
O=C(COc1cccc(C(F)(F)F)c1)N1CCN(c2ccccc2O)CC1,17
CC(C)c1ccc(-n2ccnc2SCC(=O)O)cc1,3
OC(COC(c1ccccc1)c1ccccc1)CN1CCN(c2ccccn2)CC1 (stereo not given),4
COc1ccc(S(=O)(=O)NCC2CCC(C(=O)NCc3cccnc3)CC2)cc1 (stereo not given),23
COc1ccc(-c2csc(/N=C/N(C)C)n2)cc1OC,7
O=C(Nc1ccc(Cl)c([N+](=O)[O-])c1)c1ccc2c(c1)OCCO2,15
CNC(=O)CSc1nnc(SCCC(=O)O)s1,5
CCCc1c(O)nc(SC2CC(=O)N(c3ccc(OC)cc3)C2=O)[nH]c1=O (stereo not given),29
Cc1cc(C)c(C(=O)Nc2ccc(C)c(C)c2)c(CC(C)(C)C(=O)O)c1,10
Cc1ccc(OC/C(O)=C(\C#N)c2nc3ccccc3s2)cc1,15
O=C(COc1ccccc1C(=O)O)NC1CCCc2ccccc21 (stereo not given),10
# Going on with the list.
SMILES,Biofilm kill mix
Cc1ccc(-c2cc3c(n2-c2ccc(C(=O)O)cc2)CCCC3=O)cc1,6
CCCN1C2CCCC1CC(NC(=S)Nc1cc(C)cc(C)c1)C2 (stereo not given),8
CC(C)Oc1cccc(C(=O)C2CCCN(C(=O)c3csnn3)C2)c1 (stereo not given),0
COCCSc1ccccc1C(=O)Nc1ccc2c(c1)OCO2,7
Cc1cccc(C)c1NC(=S)N1CCC(c2ccccc2)C1 (stereo not given),15
COc1cccc(CNC(=O)c2nnn(CC(=O)Nc3ccc4c(c3)OCO4)c2N)c1,10
CC(=O)c1cccc(NC(=S)NC(=O)c2ccccc2Cl)c1,5
COc1cccc(CNC(=O)c2c[nH]n3c(=O)c(Cl)c(C)nc23)c1,13
Cc1ccc(-n2c(O)c(/C=N/c3ncn[nH]3)c3ccccc3c2=O)cc1,3
O=C(C[n+]1ccc2c(c1)nnn2-c1ccccc1)c1ccc(Cl)cc1,24
COc1cc(NC(=O)N2CCNC2=O)cc(C(=O)Nc2cccc(C(F)(F)F)c2)c1,16
COc1c(/C=N/NC(=O)c2ccncc2)c(CCN(C)C(C)=O)cc2c1OCO2,16
CC1(C)C2CCC13CS(=O)(=O)NC3C2 (stereo not given),14
Fc1ccc(/C=C/c2nnc(-c3cccs3)o2)cc1,20
Cc1oc2ccccc2c1CC(=O)NCCCN(C)C,23
O=C(NCCC1=CCCCC1)C(=O)NCCc1ccc(Cl)cc1,-1
Cc1onc(-c2c(Cl)cccc2Cl)c1C(=O)OCC(=O)c1ccccc1,8
COC(=O)COc1ccc2c(=O)c(-c3ccccc3)coc2c1,11
Cc1cc(C)cc(NC(=O)C2CCCN2C(=O)NC2CCCCC2)c1 (stereo not given),24
C/C(=N\Nc1cccc(C(=O)O)c1)c1cc2ccccc2o1,-1
COC(=O)c1sc(S(=O)(=O)N2CCN(CCO)CC2)c(C(=O)OC)c1C,13
CCOC(=O)CCC(=O)Nc1ccc([N+](=O)[O-])cc1C,16
COc1ccccc1C1CC(c2ccc(Br)cc2)=NN1C(=O)c1cccnc1 (stereo not given),10
O=C(CN1CCOCC1)Nc1nc2ccc([N+](=O)[O-])cc2s1,12
Brc1ccc(C2Nc3cccc4cccc(c34)N2)s1,10
Cc1ncoc1C(=O)N1CCCC(C(=O)c2ccc(Oc3ccccc3)cc2)C1 (stereo not given),20
O=C(NCC(c1cccs1)N1CCOCC1)c1ccccc1NS(=O)(=O)c1cccc([N+](=O)[O-])c1 (stereo not given),9
Cc1cccc(N(Cc2cc3ccccc3[nH]c2=O)S(=O)(=O)c2ccccc2)c1,6
Cc1ccc(/C=C/C(=O)NCC2COc3ccccc3O2)o1 (stereo not given),0
Cc1ccc(NC(=O)CSc2nc(O)c(Cc3ccccc3)c(=O)n2-c2ccccc2)cc1,16
Cc1ccc(C2CCN(C(=S)NC3CCCCC3)C2)cc1 (stereo not given),16
Cn1c(CCc2nc3ccccc3[nH]2)n[nH]c1=S,10
O=C(NC(=S)Nc1ccc(Cl)cn1)C12CC3CC(CC(C3)C1)C2,6
O=C(N/N=C/c1c[nH]c2ccccc12)c1[nH]c2ccc(Br)cc2c1-c1ccccc1,7
N#CC1=C(N)N2C(=C(C#N)C13CCCC3)Nc1ccccc12,30
COc1ccc(OC)c(-c2cc(C3CCN(C(=O)OC(C)(C)C)CC3)[nH]n2)c1,16
O=C(Nc1ccc(OC(F)F)cc1)c1ncc(Cl)c(Cl)c1Cl,6

# Screening results (PubChem BioAssay)

# These rows are one share of the data; the hit share may differ from the screen's.
